Screening results as filed in PubChem.
APEX1 inh: qHTS Assay for Inhibitors of the Human Apurinic/apyrimidinic Endonuclease 1 (APE1) | AID 2517, 2012 | 0.35% of 350,000 active | Potency, µM (top dose mostly 65.8 µM), for inactives: at the top dose activity change, negative = inhibition, hits mostly inhibitors | DNA repair nuclease/redox regulator APEX1 (Homo sapiens), P27695 | recombinant APE1, TAMRA/BHQ-2 abasic DNA cleavage fluorescence;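 further: plate controls were vehicle for no effect and reference inhibitor for full effect; nearly all actives have a fitted effect of over 55% in size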
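Quantitative HTS: incision of a TAMRA/BHQ-2 double-stranded substrate bearing a tetrahydrofuran abasic site by 0.75 nM APE1 raises fluorescence. Substrate 50 nM final, added after 15 min compound preincubation at room temperature; progress as third-minus-first kinetic read difference.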
BLM inh: qHTS Assay for Inhibitors of Bloom's syndrome helicase (BLM); recombinant BLM DNA unwinding, fluorescence dequenching; Potency, µM (highest dose often 56.1 µM), without a hit: at the top dose activity change, negative = inhibition, actives largely listed as inhibitors; 0.2% of 350,000 active; AID 2528, 2010;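 further: plate controls were vehicle for no effect and no enzyme for full effect; nearly all actives have a fitted effect of over 35% in size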
Pol iota inh: qHTS for Inhibitors of Polymerase Iota; Potency, µM (highest dose often 115 µM), inactives show top-dose activity, negative = inhibition, most hits filed as inhibitors; 1% of 390,000 active; DNA polymerase iota (Homo sapiens), Q9UNA4; Pol iota fluorescent replication assay, 10 min
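Fluorescent replication assay read twice, at 0 min and 10 min after adding 50 nM (final) substrate. Enzyme (10 nM) and compounds were first incubated 15 min at room temperature; enzyme-free buffer wells were negative controls.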
POLB inh: qHTS Assay for Inhibitors of DNA Polymerase Beta | Pol beta primer extension/strand displacement, fluorescence kinetic | Potency, µM (highest dose often 114 µM), for the others: at the highest dose activity change, negative = inhibition, most hits filed as inhibitors | 1.3% of 340,000 active | AID 485314, 2010; further: on the % scale 0 is the no-effect control and ±100 the full control effect
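Homogeneous kinetic assay of primer extension and strand displacement by 10 nM Pol beta, preincubated 15 min at room temperature with compound before 50 nM substrate (final) was added. Read at 0 and 10 min; four-parameter Hill fit.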
Pol kappa inh: qHTS for Inhibitors of Polymerase Kappa; DNA polymerase kappa (Homo sapiens), Q9UBT6; Potency, µM (doses to about 107 µM), inactives show top-dose activity, negative = inhibition, hits mostly inhibitors; AID 588579, 2011; purified Pol kappa, fluorescent DNA synthesis assay, 10 min; 0.53% of 400,000 active; further: on the % scale 0 is the no-effect control and ±100 the full control effect
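Readout: fluorescence, taken kinetically at 0 and 10 min. Conditions: 10 nM Pol kappa, 15 min RT compound preincubation, 50 nM substrate final. Controls: enzyme-free buffer wells.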
JMJD2A Tudor inh: qHTS Assay for Inhibitors of JMJD2A-Tudor Domain; Lysine-specific demethylase 4A (Homo sapiens), O75164; AlphaScreen JMJD2A-Tudor / H3K4me3 peptide binding; Potency, µM (series often up to 114 µM), inactives show top-dose activity change, negative = inhibition, usual class: inhibitors; 4.4% of 390,000 active; AID 504339, 2011; further: on the % scale 0 is the no-effect control and ±100 the full control effect; nearly all actives have a fitted effect of over 50% in size
Target sequence (O75164 whole entry, looked up, the tested form may be a part): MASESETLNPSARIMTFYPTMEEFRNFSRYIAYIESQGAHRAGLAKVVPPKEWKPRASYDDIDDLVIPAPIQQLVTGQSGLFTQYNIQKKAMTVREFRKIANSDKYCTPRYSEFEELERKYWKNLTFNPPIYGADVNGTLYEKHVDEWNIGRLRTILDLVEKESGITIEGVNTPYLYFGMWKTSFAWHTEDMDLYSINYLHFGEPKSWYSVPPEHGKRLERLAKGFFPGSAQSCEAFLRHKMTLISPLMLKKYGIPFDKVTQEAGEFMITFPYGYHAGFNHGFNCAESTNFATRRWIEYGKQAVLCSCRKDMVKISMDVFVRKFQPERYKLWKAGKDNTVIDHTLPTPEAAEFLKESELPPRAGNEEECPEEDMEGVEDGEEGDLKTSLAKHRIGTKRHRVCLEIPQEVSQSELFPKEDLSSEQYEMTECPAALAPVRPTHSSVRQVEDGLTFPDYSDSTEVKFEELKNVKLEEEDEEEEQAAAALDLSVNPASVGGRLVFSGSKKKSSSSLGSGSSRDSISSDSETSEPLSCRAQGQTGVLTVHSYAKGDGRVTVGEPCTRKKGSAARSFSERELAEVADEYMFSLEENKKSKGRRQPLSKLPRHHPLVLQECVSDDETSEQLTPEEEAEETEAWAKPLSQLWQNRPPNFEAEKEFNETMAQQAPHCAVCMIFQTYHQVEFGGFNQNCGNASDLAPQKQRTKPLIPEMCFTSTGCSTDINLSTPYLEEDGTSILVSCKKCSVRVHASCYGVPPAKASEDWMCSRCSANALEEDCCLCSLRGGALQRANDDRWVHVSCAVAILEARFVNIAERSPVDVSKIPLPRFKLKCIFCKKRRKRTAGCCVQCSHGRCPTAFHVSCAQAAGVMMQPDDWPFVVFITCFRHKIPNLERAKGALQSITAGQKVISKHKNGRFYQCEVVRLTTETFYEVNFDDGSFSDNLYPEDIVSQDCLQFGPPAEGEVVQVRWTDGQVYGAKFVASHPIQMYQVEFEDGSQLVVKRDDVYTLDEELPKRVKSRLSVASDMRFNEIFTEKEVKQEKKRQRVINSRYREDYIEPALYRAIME
Pol eta inh: qHTS for Inhibitors of Polymerase Eta; recombinant Pol eta, fluorescent DNA replication assay; Potency, µM (highest dose often 114 µM), for the others: at the highest dose activity change, negative = inhibition, most hits filed as inhibitors; 1.2% of 390,000 active; DNA polymerase eta (Homo sapiens), Q9Y253; further: on the % scale 0 is the no-effect control and ±100 the full control effect
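Pol eta (10 nM) was preincubated with compounds for 15 min at room temperature, after which fluorescent replication substrate (50 nM final) was added to start the reaction. Fluorescence was read kinetically at 0 and 10 min.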
G9a block: qHTS Assay for Inhibitors of Histone Lysine Methyltransferase G9a; Histone-lysine N-methyltransferase EHMT2 (Homo sapiens), Q96KQ7; AID 504332, 2011; Potency, µM (highest dose often 102 µM), for the others: top-dose activity, negative = inhibition, hits mostly inhibitors; 8.8% of 350,000 active; G9a H3K9 monomethylation, AlphaScreen, 2 h; further: on the % scale 0 is the no-effect control and ±100 the full control effect; nearly all actives have a fitted effect of over 75% in size
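AlphaScreen read-out: biotin-H3K9 peptide (500 nM) methylation by 20 nM enzyme with 20 uM SAM, 2 h at room temperature after 15 min compound preincubation; anti-monomethyl H3K9 antibody plus donor/acceptor beads, 10 min dark.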
* marks the source's active call; other numbers are inactive results; ? = inconclusive; · = not tested or not shown; [ ] = remark or other dose. The call rests on the fitted dose curve; in most records, active means well fitted curve in the direction sought with a large enough effect; inconclusive means small, poorly fitted or top-dose-only effect, or another doubt; inactive means no such curve, though single readings can be large; an effect the other way counts as inactive or inconclusive. Potency means the concentration at half of the fitted maximal effect. Only part of the results is shown. The share of hits here may be higher or lower than overall.

SMILES	APEX1 inh	BLM inh	Pol iota inh	POLB inh	Pol kappa inh	JMJD2A Tudor inh	Pol eta inh	G9a block
Cc1ccc(C(=O)O/N=C\c2ccc(N3CCCCC3)c([N+](=O)[O-])c2)cc1	-2.7%	-2.1%	-1.9%	-23.5%	-11.9%	?	-12.4%	10µM*
O=C1C(=O)N(CCN2CCOCC2)C(c2ccccn2)/C1=C(/O)c1ccc(F)cc1 (stereo not given)	-2.2%	-0.9%	?	14.3%	-11.4%	?	?	8.91µM*
Nc1ncnc(Nc2cccc(F)c2)n1	2.4%	-0.9%	-22.7%[58.9 µM]	5.8%	1.6%	-7.2%	-21.2%	-5.0%
CCc1ccc(-n2nc3cc(C)c(NC(=O)c4cc(Cl)ccc4OC)cc3n2)cc1	·	-2.0%	21.4%	1.5%	2.7%	0.0%	-19.4%	14.1µM*
COc1cccc(Cn2cnc3c(N)c(C)c(C)cc32)c1	1.5%	0.2%	-5.0%	1.1%	-4.1%	-6.9%	-5.6%	?
CCc1ccc(NC(=O)CSc2nccn2-c2ccc(OC)cc2)cc1	·	-1.8%	-20.7%	-3.0%	-4.3%[60.1 µM]	?	0.6%	15.8µM*
Cc1ccc(-c2nc(NCC3CCCO3)sc2C)cc1 (stereo not given)	-11.5%	-3.8%	11.5%	18.5%	3.6%	-21.3%	-7.2%	35.5µM*
Cc1ccsc1-c1nc(CSCC(=O)N2CCN(c3ccccc3)CC2)c(C)o1	-4.1%	10.1%	9.7%	23.6%	4.2%	?	-13.1%	44.7µM*
COC(=O)c1ccc(-c2ccco2)n1Cc1ccccc1Cl	9.2%	-9.4%	1.7%	3.1%	-10.7%	?	-14.9%	28.2µM*
CCCC(=O)C1C(=O)CC(CC(C)SCC)CC1=O (stereo not given)	15.9%	-2.1%	?	20.8%	-7.6%	?	4.0%	79.4µM*
Cc1ccccc1OCc1ccc(-c2nc(C#N)c(N3CCCCC3)o2)o1	·	-4.7%	-13.9%	0.9%	6.5%	?	-8.5%	?
CSCC[C@H](NC(=O)OC(C)(C)C)C(=O)N1CCC(C(=O)N[C@H](C(=O)O)C(C)C)CC1	-1.5%	2.0%	34.4%[activator]	31.3%	2.0%[60.1 µM]	-18.5%	10.2%	-4.4%
CS(=O)(=O)Nc1nc2n(n1)C(c1ccccc1)CC(c1ccccc1)N2 (stereo not given)	14.0%	0.2%	49.4%[activator]	20.9%	-0.1%	-7.4%	-17.6%	·
COc1ccc(CCCC(=O)NC2CCCCC2)cc1	-7.8%	-1.9%	-0.6%	25.3%	-3.4%	-4.9%	-14.0%	4.3%
O=C(NC(=S)N1CCN(c2c(Cl)cccc2[N+](=O)[O-])CC1)c1cccs1	-3.1%	-5.9%	0.3%	-24.9%	-19.1%	?	-13.8%	-48.1%[59 µM]
O=S(=O)(Nc1nc2ccccc2nc1N1CCN(c2ccccc2F)CC1)c1ccc(Cl)cc1	0.1%	-6.1%	-5.3%	-7.4%	-0.4%	?	-14.0%	?
COCCn1c(=NC(=O)CSC(C)=O)sc2cc(OC)ccc21	-5.5%	0.8%	12.1%	1.0%	7.3%	1.4%	-19.9%	-12.1%
CC(=O)Nc1cccc(-c2nc3ccccc3[nH]2)c1	12.8%	2.2%	120.1%[activator]	11.7%	-3.7%	-1.7%	-14.3%	2.3%
O=C(NC(=S)Nc1cccc(Cl)c1N1CCOCC1)c1cccs1	0.2%	-12.0%	-2.1%	4.1%	-6.2%	?	-4.7%	-49.0%
O=C(C1=C(O)C(=O)N(CCN2CCOCC2)C1c1ccccn1)c1cccs1 (stereo not given)	-2.0%	-3.8%	16.9%	-0.1%	-7.3%	?	-3.4%	2.51µM*
O=C(CN1CCN(C(c2ccccc2)c2ccccc2)CC1)N1CCN(c2ccccc2)CC1	-5.2%	-9.9%	2.4%	27.7%	-3.9%	?	-6.1%	·
Cc1ccc(CSC2=NCCN2C(=O)c2ccc([N+](=O)[O-])cc2)cc1	-1.4%	-13.0%	79.3%[activator]	-14.6%	4.3%	-15.8%	-15.5%	20µM*
CSCC[C@H](NC(=O)OC(C)(C)C)C(=O)N1CCC(C(=O)N[C@@H](C)C(=O)O)CC1	-4.4%	-1.8%	-13.2%	-11.2%	-8.9%	-10.9%	-0.4%	0.4%[59 µM]
O=C(O)c1ccc2c(=O)n3c(nc2c1)/C(=C/c1ccc(Cl)c(Cl)c1)CC3	24.4%	-3.6%	-29.7%	-0.1%	-10.7%	-7.4%	6.0%	6.7%
Cc1ccc(CN(C)C(=O)CCc2c[nH]c3ccccc23)o1	3.5%	-2.0%	24.3%	2.8%	-1.7%	?	0.5%	?
SMILES	APEX1 inh	BLM inh	Pol iota inh	POLB inh	Pol kappa inh	JMJD2A Tudor inh	Pol eta inh	G9a block
C/C(=N/N1CCN(c2ccccc2)CC1)c1cccc([N+](=O)[O-])c1	-7.3%	-5.0%	21.4%	-11.2%	-3.0%	?	-21.5%	25.1µM*
CCOc1ccc(/C=C2/Sc3ccc(C(=O)N4CCOCC4)cc3N(C)C2=O)cc1OC	-15.8%	-1.6%	2.3%	-1.4%	-24.3%	-27.6%	-9.4%	-7.8%[0.0925 µM]
S=c1[nH]nc(CSCc2ccccc2Cl)n1C1CCCCC1	0.2%	-12.3%	123.5%[activator]	3.3%	-17.1%	?	-3.1%	3.55µM*
CCN(CC(=O)NCc1ccc(Cl)cc1)C(=O)COc1ccc(C)cc1C	-2.2%	-13.7%	-3.6%	3.1%	-8.9%	-11.7%	-15.7%	·
Oc1ccc(-c2nc3cnccn3c2Nc2ccc3c(c2)OCCO3)cc1	6.7%	-3.6%	-2.1%	2.6%	-3.7%	?	-20.9%	?
Cc1c(C(=O)Nc2ccc(F)cc2)sc2ncn(CC(=O)N3CCCCC3)c(=O)c12	14.9%	0.2%	28.4%	39.2%	-11.1%	-17.9%	-18.7%	11.1%
COc1ccccc1N/N=C/c1c(CO)cnc(C)c1O	-2.1%	-5.4%	-5.5%	3.1%	-6.4%[60.1 µM]	?	-7.5%	14.1µM*
Cc1c(N2CCCC2)cc2c(c1N)C(C)(C)CC2(C)C	6.6%	-5.6%	71.1%[activator]	-13.4%	-3.7%	?	-11.7%	35.5µM*
COc1cccc(-n2ccnc2SCC(=O)Nc2c(C)cc(C)cc2C)c1	·	-2.4%	13.1%	-21.3%	-5.2%[60.1 µM]	?	-18.1%	-32.5%[59 µM]
Cc1cccc(-n2ccnc2SCC(=O)Nc2ccc3c(c2)OCCO3)c1	-2.4%	-3.5%	15.7%	10.5%	-12.5%	?	-29.4%	?
COC(=O)c1ccc(NC(=O)CSc2nccn2Cc2ccc(Cl)cc2)cc1	·	-4.2%	10.3%	-0.7%	-10.7%[60.1 µM]	?	-3.8%	12.6µM*
CCOC(=O)c1c(NC(=O)COc2cccc(C(F)(F)F)c2)sc2c1CCC(C)C2 (stereo not given)	·	1.8%	13.9%	-13.2%	-8.3%	-19.9%	-9.7%	10µM*
O=[N+]([O-])c1cc(/C=N/O)ccc1SCc1ccccc1Cl	-4.2%	-10.5%	2.4%	-1.6%	-24.2%	-28.4%	-5.4%	-12.4%[59 µM]
CCCCCCSc1cc(-c2nc3ccc(Cl)cn3c2NC2CCCCC2)ccc1OC	-9.0%	·	?	·	1.3%	?	-15.1%	-6.0%[2.33 µM]
Cc1ccc(Nc2nc(N)nc(CN3CCN(Cc4ccccc4)CC3)n2)cc1Cl	1.7%	-2.8%	?	-0.1%	-1.8%	?	-12.4%	50.1µM*
Cc1ccc(-c2c[nH]c(=S)n2-c2ccccc2F)cc1	6.2%	-2.2%	98.2%[activator]	14.3%	-5.8%	?	-10.4%	2.82µM*
CCOC(=O)c1nnc2c(-c3ccc(Cl)cc3)c(C)nn2c1C	·	-4.8%	0.8%	0.4%	-7.0%	?	-3.7%	?
CC1Cc2ccccc2N1CC(=O)NC(=O)NC(C)(C)C (stereo not given)	-0.7%	-3.3%	78.8%[activator]	2.4%	-6.1%	-28.2%	-8.2%	?
CCCCNC(=O)COC(=O)c1ccc(NS(=O)(=O)c2ccc3c(c2)OCCO3)cc1	10.5%	-0.5%	21.6%	4.5%	-6.0%	-13.5%	-11.5%	-15.8%
Cc1sc2nc(CN3CCCC3)nc(N3CCN(S(=O)(=O)c4cccs4)CC3)c2c1C	3.5%	-1.9%	-11.6%	-11.6%	1.0%	?	-6.9%	0.3%
CC(=O)Nc1ccc(S(=O)(=O)Oc2ccc3c(c2)C(C)=CC(C)(C)N3)cc1	8.3%	-6.1%	·	21.3%	·	·	·	?
Cc1nn(C)c(C)c1Nc1ccc(N2C(=O)C3CC=CCC3C2=O)cc1[N+](=O)[O-] (stereo not given)	0.8%	-4.6%	53.8%[activator]	-18.5%	-4.3%	-27.3%	-18.8%	?
C=CCNC(=O)Nc1ccc2nc(C)sc2c1	2.0%	-6.0%	-5.8%	11.3%	0.8%	0.7%	-5.6%	0.9%

In another format: entries from further up.
SMILES | APEX1 inh | BLM inh | Pol iota inh | POLB inh | Pol kappa inh | JMJD2A Tudor inh | Pol eta inh | G9a block
COc1cccc(-n2ccnc2SCC(=O)Nc2c(C)cc(C)cc2C)c1 | · | -2.4% | 13.1% | -21.3% | -5.2%[60.1 µM] | ? | -18.1% | -32.5%[59 µM]
Cc1cccc(-n2ccnc2SCC(=O)Nc2ccc3c(c2)OCCO3)c1 | -2.4% | -3.5% | 15.7% | 10.5% | -12.5% | ? | -29.4% | ?
COC(=O)c1ccc(NC(=O)CSc2nccn2Cc2ccc(Cl)cc2)cc1 | · | -4.2% | 10.3% | -0.7% | -10.7%[60.1 µM] | ? | -3.8% | 12.6µM*
CCOC(=O)c1c(NC(=O)COc2cccc(C(F)(F)F)c2)sc2c1CCC(C)C2 (stereo not given) | · | 1.8% | 13.9% | -13.2% | -8.3% | -19.9% | -9.7% | 10µM*
O=[N+]([O-])c1cc(/C=N/O)ccc1SCc1ccccc1Cl | -4.2% | -10.5% | 2.4% | -1.6% | -24.2% | -28.4% | -5.4% | -12.4%[59 µM]
CCCCCCSc1cc(-c2nc3ccc(Cl)cn3c2NC2CCCCC2)ccc1OC | -9.0% | · | ? | · | 1.3% | ? | -15.1% | -6.0%[2.33 µM]
Cc1ccc(Nc2nc(N)nc(CN3CCN(Cc4ccccc4)CC3)n2)cc1Cl | 1.7% | -2.8% | ? | -0.1% | -1.8% | ? | -12.4% | 50.1µM*
